YopH PTP inh: inhibitors of Yersinia enterocolitica YopH tyrosine phosphatase; fluorescence Ex485/Em525; inhibition, %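 (about 10 µM by stock and volumes)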; 140,000 compounds, 0.16% hits; AID 898;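 active = inhibition of 50% or more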;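 note: controls were vehicle for no effect and minimum signal wells for full effect; inactives centre near -20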
RecA splice inh: inhibitors of M. tuberculosis RecA intein splicing; P9WHJ3; cell-free RecA intein splicing, fluorescence; inhibition, %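 (about 9 µM by stock and volumes)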; 290,000 compounds, 0.75% hits; AID 2221; in the data active = inhibition above about 30%;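 note: 0% = vehicle wells and 100% = reference inhibitor control wells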
Target sequence (P9WHJ3 whole entry, looked up, canonical isoform): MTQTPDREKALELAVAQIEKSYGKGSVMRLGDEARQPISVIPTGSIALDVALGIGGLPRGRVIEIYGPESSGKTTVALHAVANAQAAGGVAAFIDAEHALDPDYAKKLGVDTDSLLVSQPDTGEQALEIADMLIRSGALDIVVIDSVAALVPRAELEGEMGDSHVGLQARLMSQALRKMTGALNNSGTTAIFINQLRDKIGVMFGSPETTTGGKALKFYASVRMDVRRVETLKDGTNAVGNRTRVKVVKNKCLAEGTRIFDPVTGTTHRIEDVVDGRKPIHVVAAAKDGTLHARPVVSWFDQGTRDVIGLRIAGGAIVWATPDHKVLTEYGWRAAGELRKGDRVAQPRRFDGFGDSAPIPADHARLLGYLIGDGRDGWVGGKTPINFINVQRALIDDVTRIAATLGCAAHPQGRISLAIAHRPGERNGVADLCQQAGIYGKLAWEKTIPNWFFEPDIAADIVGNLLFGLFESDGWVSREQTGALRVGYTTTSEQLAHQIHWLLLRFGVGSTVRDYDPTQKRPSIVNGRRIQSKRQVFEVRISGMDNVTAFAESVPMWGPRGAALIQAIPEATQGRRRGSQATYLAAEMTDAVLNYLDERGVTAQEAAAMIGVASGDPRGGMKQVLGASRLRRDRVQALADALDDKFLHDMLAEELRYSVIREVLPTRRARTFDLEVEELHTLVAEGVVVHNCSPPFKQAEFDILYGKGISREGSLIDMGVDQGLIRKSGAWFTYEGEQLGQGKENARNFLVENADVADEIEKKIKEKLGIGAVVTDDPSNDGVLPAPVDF
Mtb growth: M. tuberculosis H37Rv growth inhibitors, H37Rv strain (AID 1626). M. tuberculosis H37Rv growth inhibition; higher % means a stronger effect. 220,000 compounds, 0.95% hits. inhibition, % at 10 µM, or IC50 in µM where a hit was titrated;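 active = confirmed in a dose series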;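 note: bacteria incubated seven days before Alamar blue readout; 0% = bacteria only wells and 100% = bacteria with antibiotic wells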
Mtb bLac sens: beta-lactam sensitization of Mtb H37Rv; 330,000 compounds, 0.27% hits; AID 434955; M. tuberculosis H37Rv growth with meropenem, percent inhibition; hits of this screen are not shown here; inhibition, % at 25 µM;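 active = about 74% or more and at least 40 points above the plate without the antibiotic, then above 30% in a dose series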;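 note: growth measured after seven days incubation then overnight dye step; 0% = bacteria only wells and 100% = bacteria with antibiotic; twin plates without the antibiotic show which effects depend on it; some results filed as inactive read as strong as hits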
Arbovirus anti: blocks arbovirus infection; arbovirus infection cell-based antiviral screen; 200,000 compounds, 0.37% hits; AID 1251; inhibition, % at 10 µM;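 active = inhibition from about 30%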;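 note: bluetongue infection of BSR cells; cell survival read as ATP light after 72 h; 0% = infected wells without compound and 100% = uninfected wells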
Arbovirus anti repeat: recorded beside Arbovirus anti, whose call it bears; inhibition, %; measured here: 10K subset replicate screen; many hits read low in the repeat;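 first of two repeat runs on a subset; 0% = infected and 100% = uninfected wells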
* marks the source's active call; other numbers are inactive results; x = no result given; & = joins results of further samples. A portion of the library; rates above refer to the full screens.

SMILES	YopH PTP inh	RecA splice inh	Mtb growth	Mtb bLac sens	Arbovirus anti	others
O=C(O)CSc1cccc2cccnc12	-19&-29	-1.8&-2.6	-11%&-11%	-1&1	17&-1	Arbovirus anti repeat=-1
CCOC(=O)/C(=C/c1ccccc1)NC(=O)c1ccco1	-19	-1.0	3%	6	1
COc1cc(C2NC(=O)NC(C)=C2C(=O)OCc2ccccc2)ccc1O (stereo not given)	x	5.3	4%	-1	7
CCOC(=O)c1ccc[n+](CC(=O)Nc2cc(C(F)(F)F)ccc2Cl)c1	x	-2.7	6%	1	-1
CC(=O)c1c(N2CCCC2)nc(=S)n(-c2ccccc2)c1C	-31	-0.2	8%	-5	9
N#C/C(=C/c1ccc(-c2ccccc2)o1)c1nc(-c2cccs2)cs1	-27	x	0%	-2	2
Cc1cc(C)nc(Nc2ccc(F)cc2)n1	x	0.6	x	0	x
COc1cc2c(c(OC)c1)C(c1ccncc1)CC(=O)N2 (stereo not given)	-27	x	6%	1	2
CC(C)(C)OC(=O)NCCc1nnc(S(=O)(=O)Cc2ccc(Cl)cc2Cl)o1	-37	85*	-2%	4	-26
CNC(=O)c1ccsc1NC(=O)CCS(=O)(=O)c1ccc(Cl)cc1	x	-0.9	x	0	x
N#Cc1c(-c2ccccc2)nc(-c2ccncc2)[nH]c1=O	x	-1.6	-2%	-4	10
Cc1c(C=O)c2ccccc2n1CC(=O)NCc1ccc2c(c1)OCO2	x	2.2	2%	-12	12
COc1cccc(C(=O)Nc2c(F)c(F)c(F)c(F)c2F)c1	-24	4.5	1%	-6	1
CC(=O)C1=C(C)OC(N)=C(C(=O)OC(C)C)C12C(=O)Nc1ccccc12 (stereo not given)	-5	0.6	-4%	2	-2
CC1CC1C(=O)Nc1ccc(-c2ccccc2)cc1 (stereo not given)	-9	1.8	0.31µM*	96	-12
Cc1cccc(OCc2nc3ccccc3n2C)c1	x	2.1	x	5	x
CCOC(=O)c1c(-c2ccc(OC)c(OC)c2)csc1NC(=O)C1CCCO1 (stereo not given)	x	2.6	9%	50	5
CCOC(=O)c1c(C)oc2ccc(NS(=O)(=O)c3ccc(C(=O)O)cc3)cc12	x	-1.3	-7%	-8	-3
CC(Oc1ccccc1)C(=O)Nc1cccc([N+](=O)[O-])c1 (stereo not given)	x	-2.3	3%	-6	1
COc1ccc(Cc2c(N)nc(N)nc2N)cc1	-28	0.2	-8%	-5	2

Quoted at random: two compounds from above, in no set order.
SMILES	YopH PTP inh	RecA splice inh	Mtb growth	Mtb bLac sens	Arbovirus anti	others
CC(Oc1ccccc1)C(=O)Nc1cccc([N+](=O)[O-])c1 (stereo not given)	x	-2.3	3%	-6	1
N#C/C(=C/c1ccc(-c2ccccc2)o1)c1nc(-c2cccs2)cs1	-27	x	0%	-2	2

The listing continues.
SMILES	YopH PTP inh	RecA splice inh	Mtb growth	Mtb bLac sens	Arbovirus anti	others
O=C(Cn1c(=O)c2cccn2c2cccnc21)NCCCN1CCN(c2ccc(F)cc2)CC1	x	-2.5	x	10	x
CC(C)c1nnc(NC(=O)CCC(=O)NCC2CCCO2)s1 (stereo not given)	-12	-3.6	0%	-2	-1
O=C(NCCCN1CCOCC1)c1cc(-c2ccccc2F)no1	x	-4.1	x	3	x
Cc1sc(NC(=O)CSc2nnnn2C2CCCC2)c(C#N)c1C	-48	-0.5	-7%	-3	9
O=C(Nc1ccon1)c1cccc(Cl)c1	-97	0.2	-6%	-6	0
O=C(NC1CCCCC1)NC1CC2CCC(C1)N2Cc1nnnn1Cc1ccc2c(c1)OCO2 (stereo not given)	-80	-7.2	x	-9	-4
CN(c1ccc(C(=O)NCCc2ccccc2)cc1)S(C)(=O)=O	-19	5.8	2%	4	10
N#CCN1C(=O)NC2(CCCc3sccc32)C1=O (stereo not given)	x	-0.5	x	2	x
COc1ccc(NC(=O)c2cnn(-c3ccccc3)c2C)cc1OC	x	0.1	x	0	x
O=C(c1ccccc1)c1cnc(-c2ccc(Cl)cc2)s1	-23	-4.5	2%	4	-14
COc1ccc(C)cc1S(=O)(=O)N1CCC2(CC1)OCCN2S(=O)(=O)c1cccs1	x	-2.8	x	-6	x
COC(=O)N[C@H](CC(C)=O)c1cccc(C(F)(F)F)c1	-30	0.4	7%	-3	4
CC(c1nnc(SCn2nnc3ccccc3c2=O)n1-c1ccc(Cl)cc1)N(C)C (stereo not given)	-7	0.7	4%	-12	1
COc1cccc(-n2c(=S)sc3c(=O)n(-c4ccccc4OC)c(SCC4OCCO4)nc32)c1	x	-20	0%	6	-3
O=C(CC1C(=O)NCCN1C/C=C/c1ccccc1)NCCCC1CCCC1 (stereo not given)	x	2.3	-7%	6	-3
CC1(c2ccc(Cl)cc2)NC(=O)N(CC(=O)Nc2ccc(N3CCCCC3)cc2)C1=O (stereo not given)	x	-2.8	x	5	x
Cc1onc(NC(=O)NC(=O)c2c(Cl)cccc2Cl)c1Br	x	2.5	x	8	x
COc1cccc(OCc2nnc(SCc3cc(=O)[nH]c4ccccc34)o2)c1	x	-1.4	-1%	-8	1
CC(C)(C)NC(=O)NC(=O)COC(=O)c1nc(-c2ccccc2)n(-c2cccc(C(F)(F)F)c2)n1	-18	3.9	-2%	3	-2
Cn1c(N)c(C(=O)CSc2nc3ccccc3n2-c2ccccc2)c(=O)n(C)c1=O	x	-2.1	3%	11	x
Cc1cccc(N2CCN(C(=O)COc3ccc4c(c3)CCC4)CC2)c1C	-20	4.6	17%	-2	7
CSC1=C(C#N)C(CC(C)C)C(C(C)=O)=C(C)N1 (stereo not given)	-48	-1.0	1%	-12	-2
Cc1nnc(-c2ccc(N3CCCCCC3)c([N+](=O)[O-])c2)o1	x	-1.3	-2%	-2	x
COc1ccccc1NC(=O)COC(=O)C12CC3CC(CC(Cl)(C3)C1)C2	x	2.5	6%	-1	2
CCCn1c(SC(C)C(=O)O)nc2ccccc21 (stereo not given)	-26	4.0	-5%	-2	2
CCC1CO/C(=C(\C(=C(Cl)Cl)N2CCOCC2)[N+](=O)[O-])N1 (stereo not given)	x	-3.8	-4%	-17	-1
CCOc1ccc(N2C(=O)C3ON(c4ccccc4)C(c4ccco4)C3C2=O)cc1 (stereo not given)	x	1.8	-3%	0	3
O=C(Nc1ccc2c(c1)OCCO2)c1c(F)c(F)c(F)c(F)c1F	28	-1.4	-13%	-2	0
c1ccn(-c2ccc(-c3ccn[nH]3)cc2)c1	x	-1.1	-6%	-4	3
Cc1ccc(C(=O)N/C(=C/c2cccs2)C(=O)N2CCCCC2)cc1	x	0.1	-8%	29	11
O=S(=O)(c1ccc(Br)c2ccccc12)N1CCCC1	x	3.1	x	3	x
Cc1c(C(=O)O)c(C(=O)O)c2n1CCS2	x	-1.0	-11%	-7	x
Cc1ccc(C(=O)CCNc2ccc(Cl)cc2)o1	-16	-2.7	-4%	6	-2
CS(=O)(=O)Nc1ccc(OCc2ccccc2)cc1	-29	-1.7	5%	-1	6
C/C(=N\NC(=O)OC(C)(C)C)c1ccc[nH]1	x	-1.6	3%	-10	1
COCCCNC(=O)c1cc2c(=O)n3cccc(C)c3nc2s1	x	-36	x	0	x
COc1ccc(OCC(=O)OCC(=O)N2CC(=O)Nc3ccccc32)cc1	x	-2.1	1%	-9	x
Cc1c(NC(=O)Cn2nc(C(=O)O)c3ccccc3c2=O)c(=O)n(-c2ccccc2)n1C	26	-0.8	2%	-4	4
Cc1cc(C(=O)N2CCN(S(=O)(=O)c3ccccc3F)CC2)c(C)o1	x	x	3%	-10	4
Oc1c(C=NCc2ccccc2)sc2ccccc12	x	-4.0	-11%	3	-1

7 successive compounds out of the list so far, for reference:
SMILES	YopH PTP inh	RecA splice inh	Mtb growth	Mtb bLac sens	Arbovirus anti	others
O=C(O)CSc1cccc2cccnc12	-19&-29	-1.8&-2.6	-11%&-11%	-1&1	17&-1	Arbovirus anti repeat=-1
CCOC(=O)/C(=C/c1ccccc1)NC(=O)c1ccco1	-19	-1.0	3%	6	1
COc1cc(C2NC(=O)NC(C)=C2C(=O)OCc2ccccc2)ccc1O (stereo not given)	x	5.3	4%	-1	7
CCOC(=O)c1ccc[n+](CC(=O)Nc2cc(C(F)(F)F)ccc2Cl)c1	x	-2.7	6%	1	-1
CC(=O)c1c(N2CCCC2)nc(=S)n(-c2ccccc2)c1C	-31	-0.2	8%	-5	9
N#C/C(=C/c1ccc(-c2ccccc2)o1)c1nc(-c2cccs2)cs1	-27	x	0%	-2	2
Cc1cc(C)nc(Nc2ccc(F)cc2)n1	x	0.6	x	0	x

Additional results:
SMILES	YopH PTP inh	RecA splice inh	Mtb growth	Mtb bLac sens	Arbovirus anti	others
Cc1cc(C)cc(N(C(C)C(=O)Nc2c(C)n(C)n(-c3ccccc3)c2=O)S(C)(=O)=O)c1 (stereo not given)	-8	2.9	1%	-4	5
O=C(Cc1nc(-c2ccc([N+](=O)[O-])cc2)cs1)Nc1ccccc1	-29	0.0	5%	-2	1
CCC(=O)Nc1nnc(SCc2ccccc2F)s1	x	-3.7	x	-7	5
COc1cccc(C(=O)OC(C)CN2CCCC2)c1 (stereo not given)	-34	0.2	x	3	6
COc1ccc(/C(O)=C2\C(=O)C(=O)N(c3cc(C)on3)C2c2ccccc2OC)cc1C (stereo not given)	-33	-4.9	-3%	16	4
COc1cc(OC)cc(C(=O)N[C@H](C(=O)OCC(=O)c2ccc(F)cc2)C(C)C)c1	x	-4.3	-6%	12	2
O=C(NCC(F)(F)F)N1CCOCC1	1	1.6	-2%	-8	8
CC1=CC(C)[C@H](/C=N/n2c(=O)[nH]c3c([nH]c4ccc(C)cc43)c2=O)C(C)C1 (stereo not given in full)	x	3.9	3%	-3	-14
CCOC(=O)c1cc(-c2ccc(OC)cc2)nc2c1c(C)nn2CCC#N	-25	6.8	4%	9	0
CCOc1cc(C2NC(=O)CCC2[N+](=O)[O-])cc(Br)c1OC (stereo not given)	x	-0.9	x	-4	x
CCCOc1ccc(-c2nnc(-c3cccs3)o2)cc1	-3	-0.4	9%	20	-12
Cc1cccc2c(CC(=O)Nc3ccccc3)noc12	-28	-0.5	-1%	4	-2
O=C(NCCCN1CCCC1=O)c1cc(=O)c2ccccc2o1	-39	1.3	-10%	-11	3
C=CCn1c(SCC(=O)N2CCc3ccccc3C2)nc2ccccc2c1=O	-13	6.8	-1%	-8	-6
CC(=O)c1c(COC(=O)c2cccc(C)c2)nc2ccccc2[n+]1[O-]	x	x	5%	0	x
Fc1ccccc1CSc1ncnc2c1oc1ccccc12	-33	4.5	2%	-11	-6
COc1cc(/C=N/NC(=O)CCC(=O)Nc2ccc(C)cc2)ccc1O	x	-6.0	3%	3	6
Cc1[nH]c2ccccc2c1C(=O)C(C)OC(=O)c1ccc(NC(=O)CC#N)cc1 (stereo not given)	x	2.9	x	3	x
Cc1nn(CC(C)C)c(Cl)c1C(=O)N(c1ccc(Cl)cc1F)S(C)(=O)=O	x	7.7	x	5	x
Cc1cc2c(N)cccc2nn1	17	60*	-6%	2	-9
COc1ccc(C(=O)N2CCc3cc(OC)c(OC)cc3C2)cc1OC	-34	4.0	-9%	-6	-1
COc1ccc(CC(=O)Nc2ccc(S(=O)(=O)Nc3nccc(C)n3)cc2)cc1	-42	0.2	-10%	7	-1
C/C(=C\C(=O)c1ccc(C)cc1)Nc1cccc(O)c1	-52	-4.5	x	0	2	Arbovirus anti repeat=4
NS(=O)(=O)c1ccc(CNC(=O)c2ccc(NS(=O)(=O)c3ccc4[nH]c(=O)[nH]c4c3)cc2)cc1	x	-1.8	x	-11	x
O=C1CN(C(=O)/C=C/c2ccccc2)CCN1	x	-0.8	x	-1	x
CCOC(=O)CN(C(=O)COc1nc(-c2ccccc2)cc(C)c1C#N)c1ccccc1C	x	1.7	-9%	12	x
CCCCCc1nc2ccccc2c(=O)n1N	-22	-1.3	14%	-5	10
CC1(C)Cc2c(sc3ncn4nc(CCC(=O)O)c(=O)nc4c23)CO1	-30	-15	-10%	-2	-7
COC(=O)c1c(N)c(C#N)c2n1CCCCC2	-28	-1.8	4%	7	-5
COc1cccc(/C=N/NC(=O)CCCC(=O)Nc2ccc(Br)cc2)c1	-18	-0.8	-6%	1	-5
CCOc1ccccc1C(=O)Nc1nn[nH]n1	x	1.6	-3%	-9	1
COc1ccccc1C(=O)Nc1ccc(S(=O)(=O)N2CCCCC2)cc1	x	2.3	x	-1	x
CCCS(=O)(=O)N1CCCC(C(=O)N2CCN(c3ccccn3)CC2)C1 (stereo not given)	-3	-2.0	-3%	-6	-2
CCc1cc(-c2n[nH]c(C)c2Oc2ccc(C(C)C)cc2)c(O)cc1O	-13	8.9	-5%	-2	-43
COc1ccc(-c2cc(C(=O)Nc3cccc(C(C)=O)c3)no2)cc1	-74	3.6	6%	-1	15
O=C(COC(=O)CCc1nc2ccccc2n1-c1ccccc1)Nc1ccc(N2CCCCC2)cc1	-42	-3.0	-2%	-2	-5
Cc1cc(-c2nc(C)c(C(=O)NNC(=O)NC(C)C)s2)no1	x	-1.0	-11%	-1	x
Cc1c(-c2ccccc2)nc2ccccc2c1C(=O)Nc1ccncc1	x	3.3	x	-1	x
O=C(CN1C(=O)S/C(=C\c2ccccc2)C1=O)Nc1cc([N+](=O)[O-])ccc1O	x	4.4	x	-5	x

Screening data from PubChem BioAssay.
